# Source: PubChem
# B2AR ag: activates human beta-2 adrenergic receptor causing internalization; Am2.2-beta2AR cells, FAP receptor internalization, flow cytometry; reference of the scale not given here; response, % (concentration not given with the values); AID 504454; hit rate 0.43% among 340,000;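 active = response above a set limit, near 3 SD of response in nonfluorescent compounds, cut at about 42% in these data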;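 also: stock transfer was 100 nL into about 11 µL; a reference agonist was the positive control; negative values mostly stem from fluorescent compounds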
# UCH37 inh: blocks the human deubiquitinase UCH37; Q9Y5K5; purified proteasome/UCH37, Ub-AMC cleavage fluorescence; inhibition, % (concentration not given with the values); hit rate 0.33% among 330,000; AID 588478;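 active = mean of two replicates above 20%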;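 also: 0% = compound-free wells with enzyme and 100% = wells lacking proteasome; stock transfer was 100 nL into about 20 µL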
#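 Schedule: 30 min plus 25 min, room temperature / Material: human UCH37 within purified proteasomes / Technique: AMC fluorescence intensity at 355/460 nm / Buffer or medium: pH 7.4 Tris-HCl (50 mM) with ovalbumin, ATP-MgCl2, DTT / Controls: wells without proteasome as full block, compound-free enzyme plus substrate as uninhibited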
# HNF4A DNA FP: change in binding of human HNF4 alpha to DNA. activity change, % at 10 µM. P41235. AID 1224865. hit rate 0.3% among 360,000. HNF4a-FITC DNA binding, fluorescence polarization, 1 h; in the data active = activity change above about 30%, passing the limit was not always enough;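 also: controls were the assay level and a saturating level of protein; the project sought stronger binding though the title names inhibitors; some compounds called inactive have numbers as strong as hits; positive values seem to mean higher polarization but the record does not say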
# Vif TR-FRET: HIV-1 Vif–A3G interaction blockers – biochemical, TR-FRET, GST-Vif 1-94, biotin-A3G peptide, dose response retest, primary screen (AID 1117319) | hit rate 0.57% among 260,000 | TR-FRET GST-Vif / biotin-A3G peptide binding; higher % means a stronger effect; test concentration not given here; strong numbers were not always called active | inhibition, %, or IC50 in µM where a hit was titrated;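 active = above the screen mean plus three standard deviations and confirmed in dose response; inconclusive = results disagree or hit not tested in dose response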;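 also: Vif residues 1-94 fused to GST binding biotinylated APOBEC3G peptide 110-148; 0% = full assay without inhibitor and 100% = GST in place of GST-Vif; retest series ran down from 100 µM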
# LANA-H2B inh: blocks KSHV LANA binding to histone H2A/H2B | hit rate 0.6% among 320,000 | cell-free LANA-H2A/H2B peptide, fluorescence polarization | inhibition, % (concentration not given with the values); in the data active = inhibition mostly above about 10%, no sharp cut-off; inactive = mostly below about 6.7%;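 also: stock transfer was 7.5 nL into about 10 µL; 0% = median of vehicle wells and 100% = median of positive control wells; one replicate is shown; the record names a cut of 25% in any replicate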
# Target sequence (Q9QR71 whole entry, looked up): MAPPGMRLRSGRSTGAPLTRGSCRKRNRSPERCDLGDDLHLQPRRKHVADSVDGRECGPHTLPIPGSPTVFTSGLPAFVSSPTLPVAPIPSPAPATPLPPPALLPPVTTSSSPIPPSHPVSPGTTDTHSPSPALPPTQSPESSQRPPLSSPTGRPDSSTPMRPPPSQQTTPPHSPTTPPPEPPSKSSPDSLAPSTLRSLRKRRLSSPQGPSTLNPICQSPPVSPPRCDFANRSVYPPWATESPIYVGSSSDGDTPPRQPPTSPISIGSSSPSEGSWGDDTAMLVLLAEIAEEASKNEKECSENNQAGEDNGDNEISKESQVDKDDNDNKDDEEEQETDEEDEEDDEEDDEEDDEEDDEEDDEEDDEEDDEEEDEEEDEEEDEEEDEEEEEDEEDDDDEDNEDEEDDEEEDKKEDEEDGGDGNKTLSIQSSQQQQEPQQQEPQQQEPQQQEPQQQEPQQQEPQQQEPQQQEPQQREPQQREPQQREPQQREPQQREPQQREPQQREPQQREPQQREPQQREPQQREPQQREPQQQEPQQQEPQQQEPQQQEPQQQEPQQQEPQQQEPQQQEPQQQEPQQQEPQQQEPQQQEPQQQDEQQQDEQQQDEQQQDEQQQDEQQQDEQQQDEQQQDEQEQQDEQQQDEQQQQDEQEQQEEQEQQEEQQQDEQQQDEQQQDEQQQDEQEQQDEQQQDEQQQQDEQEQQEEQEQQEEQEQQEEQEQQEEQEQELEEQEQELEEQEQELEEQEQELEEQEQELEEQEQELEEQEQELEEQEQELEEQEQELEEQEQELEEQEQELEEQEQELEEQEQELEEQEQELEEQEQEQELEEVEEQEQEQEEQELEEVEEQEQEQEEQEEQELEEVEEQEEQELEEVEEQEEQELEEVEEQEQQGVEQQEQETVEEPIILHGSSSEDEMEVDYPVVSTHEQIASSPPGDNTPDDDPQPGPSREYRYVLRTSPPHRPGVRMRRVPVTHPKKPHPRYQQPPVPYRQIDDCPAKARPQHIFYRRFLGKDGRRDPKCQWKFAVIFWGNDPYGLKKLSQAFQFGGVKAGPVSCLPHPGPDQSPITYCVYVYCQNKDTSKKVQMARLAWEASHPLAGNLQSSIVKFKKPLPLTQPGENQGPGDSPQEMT
# Ecoli growth: inhibitors of Escherichia coli growth; OD600, 23 h; active compounds read low; OD600 absorbance (concentration not given with the values); hit rate 0.21% among 330,000;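 active = OD600 absorbance below the run mean of sample wells minus 3.6 SD, in any replicate, cut at about 0.56 in these data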;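 also: stock transfer was 300 nL into about 60 µL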
# A1 inh: inhibitors of the anti-apoptotic protein A1, read as caspase activation | AID 2462 | hit rate 0.066% among 330,000 | MEF A1-2A-BIM cells, Caspase-Glo 3/7 luminescence, 3 h; percent of clofoctol response, vehicle zero | caspase activation, % (no concentration beside the values);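 active = over half of replicate activation scores above 10%, or exactly half above 10 with the replicate mean above 10; inconclusive = replicate mean below 10 yet half the replicates above 10; inactive = over half of replicates below 10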;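 also: wells of about 30 µL received 50 nL stock; many hits fall short of the cut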
# * hit, by the source's call; ? = inconclusive; nt = no result given.
# Every second line gives: B2AR ag, LANA-H2B inh, A1 inh, Ecoli growth, HNF4A DNA FP, Vif TR-FRET, UCH37 inh
- COc1ccc(CCC(=O)N2CCN(S(=O)(=O)c3ccc4ccccc4c3)CC2)cc1
    -3, 0.1, -0.4, 0.71, -4.7, -3%, -1.6
- Cc1ccc(-c2nnc(CSc3nc(C)nc4sc(C)c(C)c34)o2)cc1
    nt, -3.4, -0.6, 0.64, nt, nt, -2.3
- N#CCCN(Cc1cccnc1)C(=O)Nc1ccccc1
    7, 2.9, 0.3, 0.62, 0.3, 9%, 1.0
- O=C(C1CCN(CC2CCCCC2)CC1)N1CCCC1
    4, -4.7, -0.1, 0.68, 0.7, ?, 0.6
- O=C(O)/C=C\C(=O)Nc1cccc(C(=O)Nc2cccc(O)c2)c1
    -1, -1.9, -1.4, 0.71, 1.3, nt, 0.5
- O=C(N/N=C/c1ccc(Cl)c([N+](=O)[O-])c1)c1cnccn1
    4, 0.4, -0.6, nt, -2.0, 4%, nt
- CCOC(=O)C1=C(C)NC(C)=C(C(=O)OCC)C1c1ccc(O)cc1
    4, -1.1, 0.8, 0.7, -2.6, ?, -29
- Cc1ccc(CNC(=O)Cn2cccc2)cc1
    -3, 0.5, 0.9, 0.69, 0.3, -9%, 0.6
- Cc1cc(-c2nc3ncccc3o2)ccc1NC(=O)CC(C)C
    8, -0.9, -1.0, 0.68, -2.5, -10%, -132
- Cc1ccc(N(CC(=O)NC(C)(C)C)C(=O)CCC(=O)Nc2nccs2)cc1C
    -7, 5.1, 1.1, 0.68, -0.7, 3%, 0.2
- Cc1ccc(/C(N)=N/OC(=O)COc2ccc(Cl)c(C)c2)cc1
    1, 4.0, -0.6, 0.7, -3.0, 5%, -0.2
- COc1cc(C(=O)N(Cc2ccccc2)c2cccc(C)c2)ccc1OC(F)F
    0, 1.8, -0.5, 0.73, -2.8, nt, 5.5
- CSc1ncccc1C(=O)Nc1nc2c(C)cccc2s1
    7, 4.8, 0.2, 0.7, 1.7, -9%, -6.2
- NC(=S)Nc1ccc(F)c(F)c1F
    0, 1.5, 1.1, 0.67, 5.6, 15%, 1.0
- CCc1ccc(OCC2Cn3c(nc4c3c(=O)[nH]c(=O)n4C)O2)cc1 (stereo not drawn)
    -8, -1.1, 1.5, 0.69, -1.0, -4%, 2.3
- O=C(CN(CC1CCCO1)C(=O)CCC(=O)Nc1nccs1)NCC1CCCO1 (stereo not drawn)
    4, -4.2, 0.1, 0.76, 0.1, 6%, 4.3
- O=C(Nc1ccccc1)C1=C[C@H](c2ccc(Br)cc2)C[C@H](OCc2ccc(CO)cc2)O1
    -4, 2.5, 1.0, nt, -2.4, 2%, -0.1
- COc1ccc(NC(C)=O)cc1NC(=O)c1ccc(C#N)cc1
    18, -8.5, 0.1, 0.67, 1.1, 6%, 0.3
- Cc1cc(N2CCN(C)CC2)n2cc(-c3ccc(F)cc3)nc2n1
    -6, -0.3, 0.2, 0.69, 2.4, -1%, -268
- O=C(O)COc1c(Cl)cc(/C=C2\NC(=O)NC2=O)cc1Br
    2, 7.3, -0.6, 0.69, 0.3, nt, 11
- CCOc1ccc(C(=O)CCC(=O)Nc2ccccc2C)cc1
    4, 1.0, 0.3, 0.69, 6.6, nt, 5.0
- COc1ccc(C(CNC(=O)c2ccc(NS(=O)(=O)c3ccc(F)c(C)c3)cc2)N2CCCC2)cc1 (stereo not drawn)
    -3, nt, nt, 0.71, 5.6, nt, -3.7
- Cc1cc(Oc2ccccc2)nc(SCC(N)=O)n1
    8, 2.2, 2.0, 0.69, -2.1, -1%, 2.5
- Cc1ccc(C)c(NC(=O)CCc2ccc(S(=O)(=O)NC3CCCCC3)cc2)c1
    -8, 0.5, 0.4, 0.74, -1.7, 0%, 1.5
- Cc1csc(CNc2ncnc3ccc(-c4cccnc4)cc23)c1
    -3, 5.3, -1.2, 0.73, -0.3, nt, 2.6
- COc1ccccc1NC(=O)c1ccc(S(=O)(=O)N2CCOCC2)cc1
    -7, 1.9, -0.2, 0.68, 0.8, -3%, 3.6
- CCOC(=O)CSC1=C(C#N)C(c2ccccc2OCC)C(C(=O)OCC)C(=O)N1 (stereo not drawn)
    -4, -1.4, 0.1, 0.76, 2.2, ?, 0.0
- O=C(CCc1ccc(S(=O)(=O)N2CCOCC2)cc1)OCc1nc2ccccc2s1
    6, -1.4, -0.6, 0.71, 2.6, 76%, -5.2
- O=c1ccc(C(F)(F)F)cn1Cc1cc(=O)n2ccsc2n1
    -6, 2.5, 0.4, 0.69, -2.0, 11%, 3.2
- Cc1cc(-c2n[nH]c(=S)n2/N=C/c2ccccc2[N+](=O)[O-])n[nH]1
    -6, 1.1, 0.2, nt, -1.0, nt, nt
- COC(=O)c1ccc(/C=N/Nc2nc(-c3ccc(C)cc3)cs2)cc1
    8, 2.0, 0.3, nt, 15, nt, nt
- CCOc1ccc(N2C(=O)C3C(C2=O)C3(c2ccccc2)c2ccccc2)cc1 (stereo not drawn)
    6, 2.7, 0.0, 0.68, -1.7, 1%, 1.5
- Fc1ccccc1/C=C1\CCCC2=C1NC(=S)NC2c1ccccc1F (stereo not drawn)
    -5, 1.1, 0.5, 0.65, -1.7, 28%, 2.6
- COc1ccc(S(=O)(=O)NCCSCc2cccc(C)c2)cc1Br
    41, 2.9, 0.3, 0.76, -0.8, 12%, 3.6
- O=C(c1cnn2c(C(F)F)cc(C3CC3)nc12)N1CCc2ccccc2C1
    9, 4.0, 0.6, 0.74, -2.1, 66%, -1.6
- Cc1[nH]c2ccccc2c1CC#N
    6, -3.2, -0.4, 0.65, 3.8, nt, 3.1
- S=C(Nc1ccccc1)Nc1cccc(Cl)c1Cl
    1, -1.6, -0.7, 0.67, -0.8, nt, 0.6
- CN1CCN(c2ccc(Cl)cc2NC(=O)C2COc3ccccc3O2)CC1 (stereo not drawn)
    6, 2.8, 0.6, 0.7, -5.1, 6%, 0.3
- Cc1nnc(SCC(=O)NCc2ccc3c(c2)OCO3)s1
    2, -1.2, 0.7, 0.68, 1.6, 0%, 1.5
- O=C(CN1CCN(c2ccc(Cl)cc2)CC1)c1ccc2c(c1)OCO2
    5, -1.3, 0.1, 0.79, 4.0, 6%, 3.8
- CCC(C)(C)n1nnnc1C(c1ccncc1)N1CCC(C)CC1 (stereo not drawn)
    -6, 0.3, 1.9, 0.7, -1.6, -4%, -1.0
- COC(=O)COc1cccc(NC(=O)c2ccccc2)c1
    11, -2.0, -1.1, 0.72, 0.9, -7%, 2.1
- COc1ccc(OC)c(NC(=O)CSc2nnc(-c3ccncc3)s2)c1
    -1, 1.0, -0.3, 0.69, -0.4, -11%, 1.0
- O=C1COc2ccc(C(=O)C[n+]3cccc(O)c3)cc2N1
    0, 2.1, 2.9, 0.67, -2.4, 6%, 5.9
- COc1ccccc1OCCSc1ncnc2nc[nH]c12
    -2, -4.3, 0.3, 0.76, 4.0, -2%, 0.1
- CCC(C)c1ccc(OCCN2CCCC2)cc1 (stereo not drawn)
    1, -4.6, 0.8, 0.71, 6.1, -4%, 2.4
- CCC(c1c(C)n(C)n(-c2ccccc2)c1=O)c1c(C)n(C)n(-c2ccccc2)c1=O
    -11, -3.6, -0.2, 0.7, 1.3, -1%, 4.8
- Cc1ccc(Nc2nc(-c3cccnc3)nc3ccccc23)cc1
    10, 5.3, 0.7, 0.71, 1.7, ?, -24
- CN1CCN(S(=O)(=O)c2cccc(C(=O)Nc3cccc([N+](=O)[O-])c3)c2)CC1
    1, 4.4, -0.4, 0.68, 2.3, nt, 2.1
- Cc1ccc(S(=O)(=O)N(C)C)cc1NC(=O)COC(=O)/C=C/c1cccs1
    -2, 0.0, 0.5, 0.7, 2.6, -3%, 9.5
- COc1ccccc1S(=O)(=O)NCc1ccc(C(=O)NC2CCC(O)CC2)cc1 (stereo not drawn)
    9, nt, nt, 0.67, 3.1, 11%, -0.3
- CCOC(=O)C1=NNC(C(=O)c2ccc(C)cc2)C1c1ccc(OC)cc1 (stereo not drawn)
    -1, 2.0, -0.3, 0.71, 0.9, ?, 5.4
- CCN(CC(=O)NCc1ccc(F)cc1)CC(=O)NC1CCCC1
    12, -1.0, 0.1, 0.67, -1.3, nt, 2.6
- COc1ccc(/C=N/N2C(=O)CSC2=S)cc1Br
    -6, 1.4, -0.5, nt, 61*, nt, nt
- Cc1[nH][nH]c(=O)c1C(c1ccc(-c2ccc(C(=O)O)cc2)o1)c1c(C)[nH][nH]c1=O
    11, nt, nt, 0.73, 0.3, -8%, 23*
- O=C(O)c1cc2nc(-c3ccc(F)cc3)cc(C(F)(F)F)n2n1
    -14, 1.3, 0.6, 0.75, 0.8, 32%, 1.5
- CCOc1cc(S(=O)(=O)N2CCCC2)c(C)cc1C
    7, 5.1, 0.2, 0.7, 2.1, 3%, -0.3
- CC(=O)OCC(=O)C1CCC2C3CCC4=CC(=O)C=CC4(C)C3CCC12C (stereo not drawn)
    8, nt, nt, 0.68, 1.5, 5%, 2.4
- COc1cc(C(O)CO)ccc1O (stereo not drawn)
    -3, -0.7, -0.1, 0.7, 1.0, nt, 0.3
- COc1ccc(NC2CCCN(C(=O)c3ccc(C(C)=O)s3)C2)cc1 (stereo not drawn)
    3, -2.9, -0.7, 0.71, -1.4, nt, 4.5

# Next part
# Every second line gives: B2AR ag, LANA-H2B inh, A1 inh, Ecoli growth, HNF4A DNA FP, Vif TR-FRET, UCH37 inh
- Cc1cccc(NC(=S)N(Cc2cccs2)Cc2cc3cc(C)ccc3[nH]c2=O)c1
    1, -3.8, 0.0, 0.71, -0.6, nt, 3.5
- O=C(CN1CCN(c2ccccc2O)CC1)NC(=O)NCc1ccco1
    4, 4.7, 0.3, 0.68, 0.1, 5%, 4.4
- C=CCSc1nc2sc(C)c(C)c2c(=O)n1N
    0, 2.1, -0.2, 0.71, 0.9, -3%, 0.0
- Cc1ccc(F)c(NC(=S)Nc2cccc3ccccc23)c1
    2, -2.8, -0.8, nt, 9.6, nt, nt
- Nc1nccc(-c2cccs2)n1
    2, 7.0, -0.7, 0.72, 0.5, 4%, -1.4
- CC(OC(=O)CCC1CCCCC1)C(=O)Nc1ccc(S(N)(=O)=O)cc1 (stereo not drawn)
    -5, 1.7, -0.9, 0.65, 0.8, 6%, 0.0
- C=CCSc1nc2c(cnn2-c2ccc(C)c(C)c2)c(=O)[nH]1
    7, 5.6, 0.0, 0.73, 0.9, 6%, 1.7
- O=C(NN1C(=O)C2C3C=CC(C4CC34)C2C1=O)c1ccc(Cl)cc1Cl (stereo not drawn)
    2, 2.4, 0.0, 0.67, -0.1, -12%, 1.4
- CCCSc1nnc(-c2c[nH]c3ccccc23)n1C
    10, -1.5, 0.0, 0.63, -1.8, -5%, 2.6
- Cc1cc(=O)[nH]c(SCC(=O)c2ccc(C(C)C)cc2)n1
    4, 4.6, 0.0, 0.73, 2.4, 3%, 4.6
- Cc1ccc(CC(=O)N2CCN(c3cccc(C(F)(F)F)c3)CC2)cc1
    4, -2.3, 0.7, 0.64, -2.8, 2%, 3.1
- CN(C(=O)CSc1nnc(-c2ccc(F)cc2)c2ccccc12)C1CCS(=O)(=O)C1 (stereo not drawn)
    0, 0.5, 2.2, 0.64, 4.5, nt, 9.2

# Among those listed so far, 3 contain a nitro group on carbon.
# Every second line gives: B2AR ag, LANA-H2B inh, A1 inh, Ecoli growth, HNF4A DNA FP, Vif TR-FRET, UCH37 inh
- O=C(N/N=C/c1ccc(Cl)c([N+](=O)[O-])c1)c1cnccn1
    4, 0.4, -0.6, nt, -2.0, 4%, nt
- Cc1cc(-c2n[nH]c(=S)n2/N=C/c2ccccc2[N+](=O)[O-])n[nH]1
    -6, 1.1, 0.2, nt, -1.0, nt, nt
- CN1CCN(S(=O)(=O)c2cccc(C(=O)Nc3cccc([N+](=O)[O-])c3)c2)CC1
    1, 4.4, -0.4, 0.68, 2.3, nt, 2.1
